Ecoli growth = blocks Escherichia coli growth; OD600, 23 h; stronger effect = lower value; OD600 absorbance (test concentration not listed); actives 0.21% (n = 330,000);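 active = OD600 absorbance below the run mean of sample wells minus 3.6 SD, in any replicate, cut at about 0.56 in these data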;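 also: stock transfer was 300 nL into about 60 µL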
ALR H2O2 inh = human ALR oxidase inhibition via reduced H2O2 | P55789 | purified ALR, DTT oxidation, H2O2 HRP-luminol luminescence | inhibition, % (no concentration beside the values) | actives 3.8% (n = 290,000);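 active = mean and each replicate at 75% or more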;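 also: stock transfer was 7.5 nL into about 7.5 µL; 0% = neutral wells and 100% = wells with inactivated enzyme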
Target sequence (P55789 whole entry, looked up): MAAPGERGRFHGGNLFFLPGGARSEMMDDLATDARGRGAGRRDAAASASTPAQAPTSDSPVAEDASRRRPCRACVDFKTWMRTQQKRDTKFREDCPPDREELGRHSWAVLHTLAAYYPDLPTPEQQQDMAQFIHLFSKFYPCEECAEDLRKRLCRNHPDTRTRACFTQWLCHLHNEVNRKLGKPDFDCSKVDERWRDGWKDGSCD
AF4-AF9 inh = MLL-AF4/AF9 protein interaction inhibition. actives 0.47% (n = 350,000). inhibition, % at 10 µM. AlphaScreen, biotin-AF4 peptide binding to FLAG-AF9. AID 651704. P42568;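 active = every replicate reaching a set inhibition limit, whatever the replicate mean, cut at about 25% in these data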;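 also: 0% = plate neutral control median and 100% = total signal loss; the record names both 10 and 1 µM as test concentration; the first replicate is given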
Vif A3G = inhibitors of Vif binding to APOBEC3G peptide, primary screen, biochemical, TR-FRET, GST-Vif 1-94, biotin-A3G peptide, dose response retest (AID 1117319); TR-FRET GST-Vif / biotin-A3G peptide binding; higher % means a stronger effect; test concentration not given here; strong numbers were not always called active; actives 0.57% (n = 260,000); inhibition, %; hits with a dose series show IC50 in µM;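 active = above the screen mean plus three standard deviations and confirmed in dose response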;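 also: Vif residues 1-94 fused to GST binding biotinylated APOBEC3G peptide 110-148; 0% = full assay without inhibitor and 100% = GST in place of GST-Vif; retest series ran down from 100 µM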
FGF22 binding = shifts melting point of recombinant human FGF22. Q9HCT0. recombinant FGF22 thermal shift, SYPRO orange fluorescence; percent of sucrose octasulfate shift, DMSO zero. calls only at 9.99 µM. actives 1.5% (n = 340,000);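 active = melting point raised past a set limit in the mean and every replicate; three in four hits are not shown here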
Target sequence (Q9HCT0 whole entry, looked up): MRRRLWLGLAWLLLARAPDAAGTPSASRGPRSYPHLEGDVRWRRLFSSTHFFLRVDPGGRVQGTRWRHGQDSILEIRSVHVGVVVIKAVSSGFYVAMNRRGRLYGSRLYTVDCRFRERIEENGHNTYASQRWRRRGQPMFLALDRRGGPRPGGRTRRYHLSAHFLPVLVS
Ecoli rRNA inh = inhibits bacterial ribosomal RNA function over humanized ribosomes; E. coli WT GFP vs humanized-ribosome RFP mutants, fluorescence, 24 h; stronger effect = lower value; DMSO median 0, no signal -100; GFP signal change (wild-type ribosome), % (no concentration beside the values); actives 1.6% (n = 350,000); AID 720706;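 active = significant combined selectivity score with lowered wild-type GFP, culture density cut under 30%, mutant RFP and density less affected; inactive = any of these conditions unmet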; also: one replicate is shown; some compounds called inactive have numbers as strong as hits
HNF4A DNA FP = change in binding of human HNF4 alpha to DNA; HNF4a-FITC DNA binding, fluorescence polarization, 1 h; activity change, % at 10 µM; AID 1224865; actives 0.3% (n = 360,000); P41235; in the data active = activity change above about 30%, passing the limit was not always enough;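 also: controls were the assay level and a saturating level of protein; the project sought stronger binding though the title names inhibitors; some compounds called inactive have numbers as strong as hits; positive values seem to mean higher polarization but the record does not say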
Target sequence (P41235 whole entry, looked up): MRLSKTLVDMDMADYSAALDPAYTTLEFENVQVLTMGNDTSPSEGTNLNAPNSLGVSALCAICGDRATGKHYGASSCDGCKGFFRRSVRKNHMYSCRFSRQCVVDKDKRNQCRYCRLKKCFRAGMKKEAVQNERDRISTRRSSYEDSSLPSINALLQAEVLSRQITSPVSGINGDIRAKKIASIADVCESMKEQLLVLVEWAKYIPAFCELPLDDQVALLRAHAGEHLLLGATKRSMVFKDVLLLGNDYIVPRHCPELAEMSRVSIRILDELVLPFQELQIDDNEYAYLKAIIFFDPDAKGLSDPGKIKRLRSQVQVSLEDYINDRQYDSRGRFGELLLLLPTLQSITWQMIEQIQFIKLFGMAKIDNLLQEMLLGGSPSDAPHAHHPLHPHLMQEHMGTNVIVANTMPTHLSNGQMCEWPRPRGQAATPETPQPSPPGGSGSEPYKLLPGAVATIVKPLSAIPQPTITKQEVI
Ecoli rRNA inh OD600 = further read-out of Ecoli rRNA inh, marked with its call; OD600 change, %; measured here: OD600 growth;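 optical density of the mix in the first replicate; 0 = DMSO median and -100 = no signal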
Ecoli rRNA inh RFP = also measured in Ecoli rRNA inh; calls as there; RFP signal change, %; measured here: RFP humanized mutant strains;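 first replicate; 0 = DMSO median and -100 = no signal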
Starred values were filed as active, the others as inactive; i = inactive; . = no result given; + = active, no number.

A first look (five entries):
molecule	Ecoli growth	ALR H2O2 inh	AF4-AF9 inh	Vif A3G	FGF22 binding	Ecoli rRNA inh	Ecoli rRNA inh OD600	Ecoli rRNA inh RFP	HNF4A DNA FP
O=C(CCN1C(=O)c2ccccc2C1=O)Nc1ccncc1	0.76	-6	.	3%	.	.	.	.	3.4
CN(Cc1ccccc1F)C(=O)CN1C(=O)NC2(CCc3ccccc32)C1=O (stereo not drawn)	0.68	.	-1.7	4%	i	1	5	-4.0	-2.4
C[C@@H]1CN([C@H](C)CO)C(=O)Cc2cc(NC(=O)Nc3ccc4c(c3)OCO4)ccc2O[C@@H]1CN(C)S(=O)(=O)c1ccc(F)cc1	.	.	4.2	.	i	0	-3	4.0	.
COCC(=O)N1CC2(C1)CN(Cc1ccccn1)[C@H](CO)c1[nH]c3cc(OC)ccc3c12	.	.	0.0	.	i	5	2	0.1	.
CC(C)CN1C(=O)c2ccc(C(=O)Nc3ccccn3)cc2C1=O	0.73	-7	.	3%	.	.	.	.	-1.2

The whole of this part, from the start:
molecule	Ecoli growth	ALR H2O2 inh	AF4-AF9 inh	Vif A3G	FGF22 binding	Ecoli rRNA inh	Ecoli rRNA inh OD600	Ecoli rRNA inh RFP	HNF4A DNA FP
O=C(CCN1C(=O)c2ccccc2C1=O)Nc1ccncc1	0.76	-6	.	3%	.	.	.	.	3.4
CN(Cc1ccccc1F)C(=O)CN1C(=O)NC2(CCc3ccccc32)C1=O (stereo not drawn)	0.68	.	-1.7	4%	i	1	5	-4.0	-2.4
C[C@@H]1CN([C@H](C)CO)C(=O)Cc2cc(NC(=O)Nc3ccc4c(c3)OCO4)ccc2O[C@@H]1CN(C)S(=O)(=O)c1ccc(F)cc1	.	.	4.2	.	i	0	-3	4.0	.
COCC(=O)N1CC2(C1)CN(Cc1ccccn1)[C@H](CO)c1[nH]c3cc(OC)ccc3c12	.	.	0.0	.	i	5	2	0.1	.
CC(C)CN1C(=O)c2ccc(C(=O)Nc3ccccn3)cc2C1=O	0.73	-7	.	3%	.	.	.	.	-1.2
COC(=O)Cc1[nH]n(-c2nc3ccccc3s2)c(=O)c1C(C)=Nc1ccc(C)cc1	0.66	98*	-0.9	-5%	+	-26*	-18*	0.4*	9.5
CC(C)(C)[S@](=O)N1Cc2cc(C(=O)NCCc3ccncc3)nc(-c3cccc(-c4cccc(C#N)c4)c3)c2[C@@H]1CCO	.	.	2.2	.	i	-3	-20	9.2	.
COc1ccc(NS(=O)(=O)c2cccc(Cl)c2)cc1S(=O)(=O)N1CCCCC1	0.71	-5	1.1	2%	i	20	12	1.7	1.4
O=C(N[C@H]1CC[C@@H](CCNS(=O)(=O)c2ccc(F)cc2)O[C@H]1CO)C1CCOCC1	.	.	1.0	.	i	4	6	-2.1	.
Cc1ccc(NC(=S)N2CCCC2)cc1Cl	0.69	-8	-7.2	-2%	i	3	-7	-1.8	7.8
CS(=O)(=O)c1ccc2nc(NC(=O)Nc3ccc(Cl)cc3)sc2c1	0.64	-1	0.0	.	i	-4	11	-3.9	5.6
C=CCNc1nc(C(=O)OCC(=O)c2ccccc2)cs1	0.66	-23	-0.4	.	i	5	13	0.6	-4.8
C[C@H](CO)N1C[C@H](C)[C@@H](CN(C)Cc2ccc(C(=O)Nc3ccccc3N)cc2)Oc2ccc(NS(=O)(=O)c3ccccc3)cc2C1=O	.	.	1.3	.	i	2	4	0.1	.
COC(=O)c1ccc(-c2ccco2)n1Cc1nc(-c2ccc(OC)c(OC)c2)oc1C	0.72	-17	.	23%	.	.	.	.	-0.6
Cc1nc2cc(OC3(C)CCN(Cc4ccc(OC(F)(F)F)cc4)C3)ccc2s1 (stereo not drawn)	.	.	2.5	.	i	-54	-74	-16	-0.5
COc1ccc(NC(=O)CSc2nc3ccccc3nc2N2CCCC2)c(OC)c1	0.83	-12	-3.4	.	i	11	8	-3.7	2.6
CCOCCCn1c(SCC(=O)Nc2oc(C)c3c(C)n[nH]c(=O)c23)nc2ccccc2c1=O	0.68	.	-1.1	0%	i	9	13	0.4	2.1
COc1c(F)c(F)c(C(=O)O)c(Nc2ccccc2)c1F	0.73	4	.	5%	.	.	.	.	-0.6
O=C(C[C@H]1CC[C@H](NC(=O)c2ccccn2)[C@H](CO)O1)NCc1cccc(F)c1	.	.	2.7	.	i	4	4	1.0	.
Cc1ccc(N2CC(C(=O)N3CCN(c4ccccc4)CC3)CC2=O)cc1 (stereo not drawn)	0.67	0	3.3	1%	i	-3	-8	2.1	0.1
COc1ccc(C(=O)Cc2ccc(OC)c(OC)c2)cc1	0.67	-4	.	-9%	.	.	.	.	3.2
CCOC(=O)Cc1csc(NC(=O)CSc2nnc(Cc3csc(N)n3)n2C)n1	0.74	-6	.	4%	.	.	.	.	-1.8
CCOc1ccccc1-c1nnc(SCC(=O)Nc2ccccc2)o1	0.67	-11	.	-6%	.	.	.	.	-1.5
O=C(CN1CCOCC1)NCC[C@@H]1CC[C@H](NC(=O)c2ccccc2F)[C@H](CO)O1	.	.	-3.0	.	i	2	3	0.5	.
O=C(Nc1ccc(-c2ccc3nncn3n2)cc1)C1CCCCC1	0.64	-2	2.7	-10%	i	-5	0	-1.8	2.4
CCCNc1ccc(S(=O)(=O)N(CC)CC)cn1	0.68	3	.	-1%	.	.	.	.	-3.3
CC(=O)c1cccc(NC(=O)c2ccc(CN3CCc4ccccc4C3)cc2)c1	0.64	-6	-2.6	.	i	-24	-18	0.6	-2.5
COCCn1cnc2c1c(=O)[nH]c(=O)n2Cc1ccccc1	0.67	.	.	4%	.	.	.	.	0.8
O=C(Nc1ccccc1)N1CCCC2CCCCC21 (stereo not drawn)	0.71	-7	.	8%	.	.	.	.	1.5
Cc1cc(C)n(-c2ccc(C(=O)OC(C)C(=O)Nc3ccc(C(N)=O)cc3)cc2)n1 (stereo not drawn)	0.7	.	0.3	4%	i	1	0	-0.1	0.2
COc1ccc(S(=O)(=O)NCc2ccccn2)c(C)c1C	.	6	-2.0	4%	i	3	3	-11	2.3
COc1ccc2oc(=O)c(C(C)=O)cc2c1	0.68	-2	.	17%	.	21	18	1.8	-2.4
Cc1cccc(NC(=O)CCC(=O)N/N=C/c2cccnc2)c1	.	-2	-1.9	.	i	3	0	-2.7	1.2
Cc1nn(CC(=O)N2CCN(C(=O)c3ccco3)CC2)c(C)c1[N+](=O)[O-]	0.68	-8	2.3	-2%	i	10	12	1.6	-3.2
Cc1cccc(OCC(=O)Nc2cccc(C(=O)NCC(C)C)c2)c1	0.67	-12	.	-11%	.	.	.	.	-2.2
CC1(C(=O)NCc2cccc(C(F)(F)F)c2)CCN1Cc1cc2ccccc2o1 (stereo not drawn)	.	.	2.1	.	i	.	.	.	2.9
COc1ccc(Cl)cc1/C=C/c1ccc2cccc(O)c2n1	0.69	10	-4.9	.	i	1	3	2.2	-0.6
COc1cccc(-c2ccc3c(c2)[C@H]2[C@H](CCN2C(=O)Cc2ccccc2)[C@H](CO)N3)c1	.	.	-4.9	.	i	-47	-72	-10	.
COC(=O)CSc1nc2c(c(=O)n(C)c(=O)n2C)n1CCC(C)C	0.69	2	.	9%	.	.	.	.	2.6
Cc1nn(CCCC(=O)NCCc2ccccc2)c(=O)c2nccn12	0.73	-25	-7.9	.	i	1	10	5.5	-2.4
O=C(Nc1ccccc1)[C@@H]1[C@@H](CO)[C@@H]2Cn3c(cccc3=O)[C@H]1N2C(=O)c1ccc(F)cc1	.	.	2.1	.	i	0	5	-0.4	.
O=C(c1ccccc1F)N1C[C@@H]2[C@H](c3ccccc31)[C@@H](CO)N2C(=O)c1cccnc1	.	.	0.6	.	i	2	7	-3.6	.
C=CCSc1nnc(-c2ccccc2NC(=O)CC)c(=O)[nH]1	0.76	11	.	-1%	.	.	.	.	-1.0
c1ccc(-c2cc(-c3nnco3)c3ccccc3n2)nc1	0.71	-2	3.1	-4%	i	0	-1	-3.5	-2.2
CC(=O)N(C)C[C@@H]1Oc2ncc(C#CCc3ccccc3)cc2C(=O)N([C@H](C)CO)C[C@@H]1C	.	.	-4.5	.	i	-2	7	-3.4	.
Cc1ccc(S(=O)(=O)N[C@@H]2CC[C@H](CCNC(=O)C3CCC3)O[C@@H]2CO)cc1	.	.	-1.7	.	i	-2	-1	-1.0	.
CCCC(=O)Nc1ccc2c(c1)C(=O)N(CCC(=O)O)C2=O	0.71	3	.	3%	.	.	.	.	0.3
CCN(CC)C(=O)CS(=O)CC(=O)Nc1cc(OCCOC)c(Cl)cc1Cl (stereo not drawn)	0.73	-16	-0.6	.	.	5	-12	-4.0	3.1
O=Cc1ccccc1-n1cccn1	0.68	.	-1.1	11%	i	8	6	-0.8	-1.7
COC(=O)COc1ccc(/C=C2/SC(=O)N(CC(=O)N3CCCC3)C2=O)cc1Br	0.74	-3	.	-8%	.	.	.	.	-3.1

(further entries)
molecule	Ecoli growth	ALR H2O2 inh	AF4-AF9 inh	Vif A3G	FGF22 binding	Ecoli rRNA inh	Ecoli rRNA inh OD600	Ecoli rRNA inh RFP	HNF4A DNA FP
COc1cc(OC)cc(C(=O)/C=C2\Sc3ccccc3N2C)c1	0.59	-4	-2.0	.	i	0	0	0.4	4.2
CCOc1ccc(CN(C)C(=O)c2cccc(S(=O)(=O)N3CCCC3)c2)cc1OC	0.68	0	-7.2	-17%	i	2	-1	-0.8	3.9
COCCC1CCCCN1C(=O)c1cccc(OC2CCN(C3CCCC3)CC2)c1 (stereo not drawn)	0.67	-33	-0.5	4%	i	4	-6	-13	-1.4
COc1ccc(NC(=O)COC(=O)CCC(=O)c2cccs2)cc1OC	0.65	-7	-9.8	15%	i	4	-1	2.5	0.8
COc1ccc(CN(C)C[C@@H]2Oc3ccc(NS(=O)(=O)c4ccc(Cl)cc4)cc3C(=O)N([C@H](C)CO)C[C@@H]2C)cc1	.	.	-6.1	.	i	5	-3	6.2	.
Cc1ccc(N(C(=O)CNC(=O)c2ccco2)C(C(=O)NC2CCCC2)c2cccnc2)c(C)c1 (stereo not drawn)	0.67	-3	-0.4	.	i	5	9	-1.5	0.2
O=C(Cc1ccccc1)N1C[C@@H]2[C@H](c3ccccc31)[C@@H](CO)N2C(=O)C1CC1	.	.	1.0	.	i	2	-2	0.2	.
O=C(NNC(=O)c1ccccc1F)C1=NN(c2ccccc2)C(=O)CC1	0.71	-2	-3.8	.	i	5	8	-5.7	3.2
O=C(Nc1cccc(Cl)c1)N[C@H]1CC[C@H](CCNC(=O)C2CC2)O[C@@H]1CO	.	.	1.2	.	i	-6	-4	-0.4	.

An excerpt; rates above refer to the full screens.
